Assay outcomes: PubChem, Southern Research Institute
Mtb growth: Mycobacterium tuberculosis H37Rv growth inhibition, cell based, confirmatory dose response (AID 1949); M. tuberculosis H37Rv growth inhibition; most inactive calls were filed without a number and no value below 0 was filed; one-dose inhibition, % at 10 µg/mL; IC50 in µg/mL for titrated hits; 100,000 tested, 1.6% active;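 active means confirmed in a dose series; inconclusive means about 50% or more but not retested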;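 further: bacteria grown 7 days with compound before Alamar blue readout; 0% = untreated bacteria and 100% = reference antibiotic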
* hit, by the source's call; i = inactive; ? = inconclusive. This is a subset, so the mix of outcomes need not match the whole.

SMILES	Mtb growth
COc1cc(OC)nc(N2C(=O)C(C)C(Cc3ccc(C)cc3)C2=O)n1 (stereo not given)	3%
Nc1cc(=O)[nH]c(Nc2nc3ccccc3s2)n1	i
C#CCOc1c(I)cc(CO)cc1OC	i
O=C(CSc1nnc(SCc2cccc3ccccc23)s1)Nc1ccccc1F	1.4µg/mL*
Cc1cccc(OCC(O)CN2CCN(CCN3C(=O)c4cccc5cccc(c45)C3=O)CC2)c1C (stereo not given)	2.5µg/mL*
CCOc1ccccc1NS(=O)(=O)c1cc(Br)ccc1OC	3%
CCOC(=O)c1c(NC(=O)c2nc3nc(C)cc(C(F)F)n3n2)sc(C)c1C	0%
c1ccc(-n2ncc(-c3nn[nH]n3)n2)cc1	i
COc1ccc(-c2[nH]ncc2/C=C/c2cc(C(F)(F)F)[nH]c(=O)n2)cc1	i
CN1CCN(Cc2nc3ccccc3[nH]2)CC1	i
CCC(=O)c1cc(-c2nc3ccccc3n2C)n(C)c1	i
CCSc1ccccc1C(=O)Nc1ccc2c(c1)OCO2	i
CN(C)c1ccc(-c2nc3cc(NC(=O)c4cc5ccccc5o4)ccc3o2)cc1	i
Cc1cc(CNC(=S)Nc2ccc(Br)cc2Cl)nn1C	i
COc1cc(C(=O)Nc2cccc(-c3cc4ccccc4oc3=O)c2)cc(OC)c1OC	i
CCOc1ccc(N(CC(=O)N2CCN(C)CC2)S(=O)(=O)c2ccc(C)cc2)cc1	0%
Cc1ccc([N+](=O)[O-])cc1NC(=O)CCN1C(=O)c2ccccc2C1=O	i
CCCOC1(C(F)(F)F)NC(=O)N(c2ccc(C(C)C)cc2)C1=O (stereo not given)	i
Oc1cccc(Oc2nnnn2-c2ccccc2)c1	8%
CCOc1ccc(NC(=O)C(C)Sc2nnnn2-c2cccc3ccccc23)cc1 (stereo not given)	25%
O=C1Nc2ccccc2C1(Cl)Cl	i
COC(=O)c1c(NC(C)=O)sc2c1CCCCC2	2%
COc1ccc(NC(=O)c2ccco2)cc1NC(=O)c1ccc(-c2cccc([N+](=O)[O-])c2)o1	i
COc1cccc(C(=O)Nc2c(F)cccc2F)c1	i
CCC(C)NC(=O)c1ccccc1NC(=O)c1ccccc1N(Cc1ccccc1)S(=O)(=O)c1ccccc1 (stereo not given)	1%
COc1ccc(CN2CCC(C(=O)N(CCc3ccccc3)Cc3ccccc3)CC2)cc1	i
CCn1c(SCC(=O)Nc2cccc(C(C)=O)c2)nnc1-c1ccncc1	i
Cc1nc2c(n1O)CCc1c-2no[n+]1[O-]	i
COC(=O)Cc1c(C)c2ccc(OCC(=O)OCc3ccccc3)cc2oc1=O	i
CCOC(=O)C1=C(C)N=c2s/c(=C\c3ccc([N+](=O)[O-])o3)c(=O)n2C1c1ccc(OCC)cc1 (stereo not given)	i
CCOC(=O)C1=C(C)NC2=C(C(=O)CC(c3ccco3)C2)C1c1ccccc1Cl (stereo not given)	6%
Cc1ccc2oc(C(F)(F)C(F)F)cc(=O)c2c1	12%
CCN(CC)C(=O)c1ccc(Nc2nnc(C)c3ccccc23)cc1	2%
COc1ccc(NC(=O)NC(C)(C)CC(C)(C)C)c(OC)c1	i
CCCCC(=O)N(CC)C1CCCCC1	i
CCOc1ccc(/C=C/c2nc3ccccc3c(=O)[nH]2)cc1OC	i
O=[N+]([O-])c1cc2nc(C(F)(F)F)nc2c2[nH]snc12	i
CS(=O)(=O)N(CC(=O)Nc1ccccc1Sc1ccccc1)C1CCCCC1	i
Cc1cc(Nc2ccccc2)n(C(=O)c2ccc(N)cc2)n1	i
CN1C(=O)C2(C(C#N)=C(N)Oc3c2oc(CO)cc3=O)c2ccccc21 (stereo not given)	i

Given as a markdown table: part of the list above
| smiles | Mtb growth |
| --- | --- |
| COc1ccc(NC(=O)c2ccco2)cc1NC(=O)c1ccc(-c2cccc([N+](=O)[O-])c2)o1 | i |
| COc1cccc(C(=O)Nc2c(F)cccc2F)c1 | i |
| CCC(C)NC(=O)c1ccccc1NC(=O)c1ccccc1N(Cc1ccccc1)S(=O)(=O)c1ccccc1 (stereo not given) | 1% |
| COc1ccc(CN2CCC(C(=O)N(CCc3ccccc3)Cc3ccccc3)CC2)cc1 | i |
| CCn1c(SCC(=O)Nc2cccc(C(C)=O)c2)nnc1-c1ccncc1 | i |
| Cc1nc2c(n1O)CCc1c-2no[n+]1[O-] | i |
| COC(=O)Cc1c(C)c2ccc(OCC(=O)OCc3ccccc3)cc2oc1=O | i |
| CCOC(=O)C1=C(C)N=c2s/c(=C\c3ccc([N+](=O)[O-])o3)c(=O)n2C1c1ccc(OCC)cc1 (stereo not given) | i |
| CCOC(=O)C1=C(C)NC2=C(C(=O)CC(c3ccco3)C2)C1c1ccccc1Cl (stereo not given) | 6% |
| Cc1ccc2oc(C(F)(F)C(F)F)cc(=O)c2c1 | 12% |
| CCN(CC)C(=O)c1ccc(Nc2nnc(C)c3ccccc23)cc1 | 2% |
| COc1ccc(NC(=O)NC(C)(C)CC(C)(C)C)c(OC)c1 | i |
| CCCCC(=O)N(CC)C1CCCCC1 | i |
| CCOc1ccc(/C=C/c2nc3ccccc3c(=O)[nH]2)cc1OC | i |
| O=[N+]([O-])c1cc2nc(C(F)(F)F)nc2c2[nH]snc12 | i |
| CS(=O)(=O)N(CC(=O)Nc1ccccc1Sc1ccccc1)C1CCCCC1 | i |
| Cc1cc(Nc2ccccc2)n(C(=O)c2ccc(N)cc2)n1 | i |
| CN1C(=O)C2(C(C#N)=C(N)Oc3c2oc(CO)cc3=O)c2ccccc21 (stereo not given) | i |

Next part:
SMILES	Mtb growth
CCC(C)NS(=O)(=O)c1ccc(NC(=O)c2sc3ccccc3c2Cl)cc1 (stereo not given)	i
Cc1noc(C)c1C(=O)N(Cc1ccccc1)c1ccccc1	i
CCN(CC)C(=O)CSc1nc2c(cc1C#N)CCC2	i
O=C(Cc1ccccc1)NC(c1ccccc1Cl)c1c(O)ccc2ccccc12 (stereo not given)	i
Cc1cccc(N2C(=S)N(c3ccccc3)C3CS(=O)(=O)CC32)c1 (stereo not given)	i
c1ccc(CN2CCC(N3CCN(C4CCCCCC4)CC3)CC2)cc1	i
COc1ccc(C(=O)NCc2ccccc2)cc1S(=O)(=O)N1CCOCC1	1%
c1ccc(Nc2ccccc2Nc2ccccn2)nc1	3%
O=C(NCCN1CCN(Cc2ccc(Br)cc2)CC1)C(=O)Nc1ccccc1	i
CCOc1ccc(N(CC(=O)Nc2ccccc2F)S(=O)(=O)c2ccc(OC)c(OC)c2)cc1	i
COC(=O)c1cc2c(cc1NC(=O)c1cccs1)OCO2	i
CCOc1ccc(NC(=O)CSc2nnc(C(NC(=O)c3cccc(C)c3)C(C)C)n2C)cc1 (stereo not given)	i
CCCCC1CC(C)(c2csc(Nc3ccc(C)cc3)n2)OC1=O (stereo not given)	i
COC(=O)c1cccc(NC(=S)Nc2ccc(OC)cc2OC)c1	i
CC(C)(Oc1ccc(Cl)cc1)C(=O)N1CCC(Cc2ccccc2)CC1	i
Cc1cc(OCCCCn2ccnc2)ccc1C(C)C	2.6µg/mL*
COc1ccc(CC(=O)O/N=C(\N)c2ccc(Br)cc2)cc1	i
CSc1ccc(S(=O)(=O)Nc2cccc(C(F)(F)F)c2)cc1	i
COc1ccccc1C(=O)NNC(=O)COc1ccccc1C(C)C	i
COc1ccc(C2(C(=O)NCCCN(C)C)CCCC2)cc1	i
CCOc1ccc(C=C2C(=O)NC(=S)NC2=O)cc1OCc1ccc(Cl)cc1	i
CCOc1cc(C(=O)Nc2ccc(-c3ccc([N+](=O)[O-])cc3)cc2)cc(OCC)c1OCC	6%
CCCn1nnnc1NCc1c(Cl)cccc1Cl	i
COc1nnc(-c2ccc(N3CCCCC3)c(NC(=O)c3ccc(F)cc3)c2)c2ccccc12	7%
CN(c1cccc(NC(=O)COc2ccccc2)c1)S(C)(=O)=O	i
CCc1cc(=O)oc2cc(C)cc(OCC(=O)Nc3ccc(C)cc3)c12	i
CCOc1ccc2c(=O)c(-c3ccc(Br)cc3)coc2c1	i
COc1ccc(C)cc1NC(=O)CCC(=O)O	i
COC(=O)c1cc(NC(=O)CC2NCCNC2=O)cc(C(=O)OC)c1 (stereo not given)	i
CCCn1c(SCC(=O)Nc2c(C)cc(C)cc2C)nnc1-c1ccccc1	i
Cc1ccc(CN(c2ccc(C(=O)NCc3cccnc3)cc2)S(C)(=O)=O)cc1	i
O=C1CC(c2ccccc2Cl)Cc2c1cnn2-c1nc2ccccc2s1 (stereo not given)	2%
O=C(NC(=S)Nc1ccc(I)cc1F)c1cccs1	i
COc1ccc(OC(C)C(=O)N2CCCc3ccccc32)cc1 (stereo not given)	i
COc1ccc(CSc2nc(C)cc(=O)[nH]2)cc1Br	1%
COc1ccc(S(=O)(=O)N(C)CC(=O)O)cc1C	i
COc1cc(OC)c(C(=O)Nc2nc3ccccc3s2)cc1OC	i
CCOc1cc(/C=C2\C(=O)NN(c3ccccc3)C2=O)cc(Cl)c1OC(=O)c1ccco1	i
CCCOc1ccc(Nc2ncnc3ccccc23)cc1	47%
CC1SC(NC(=O)CSc2nc3ccccc3s2)=NC1=O (stereo not given)	i
COc1ccc(-c2csc(NC(=O)C3CC=CCC3C(=O)O)n2)cc1 (stereo not given)	3%
CCOc1ccc(C2C(C(=O)OC)=CN(CC3CCCO3)C=C2C(=O)OC)cc1OCC (stereo not given)	i
Cc1cc2nc(Nc3ncc4c(n3)CC(c3ccco3)CC4=O)nc(C)c2cc1C (stereo not given)	i
Cc1cc(C(F)F)n2nc(C(=O)Nc3sc4c(c3C#N)CCCC4)nc2n1	i
COc1ccc(S(=O)(=O)Nc2cc(C(F)(F)F)ccc2Cl)cc1Br	i
O=C(c1cccc([N+](=O)[O-])c1)N1CCN(C(=O)N2CCOCC2)CC1	i
CC(C)(C)NS(=O)(=O)c1ccc(NC(=O)Cc2cccs2)cc1	i
CC1CN(S(=O)(=O)c2ccc(NC(=O)c3sc4ccccc4c3Cl)cc2)CC(C)O1 (stereo not given)	i
Clc1ccc(N2CCN(c3nnnn3-c3ccccc3)CC2)cc1Cl	i
OCc1ccc(OCc2cccc3ccccc23)cc1	i
CCOC(=O)C1CCN(S(=O)(=O)c2ccc(OC)c(I)c2)CC1	i
CC1(C)C(=O)C2(C(=O)Nc3cc(Cl)ccc3Cl)CCC1C2 (stereo not given)	2%
Cc1ccc2oc(=O)n(CCOc3ccccc3C)c2c1	i
Cc1ccc(-n2ncc3c(N4CCN(c5ccccc5F)CC4)ncnc32)c(C)c1	?
CCn1c(SCC(=O)c2ccc(Br)cc2)nnc1-c1ccc(Cl)cc1Cl	i
Cc1cc(OCC(=O)N2CCc3ccccc3C2)ccc1Br	1%
Cc1c(Cl)cccc1NC(=S)NC1CCN(C(C)C)CC1	i
COC(=O)c1cc(-c2ccc(NC(C)=O)cc2)nc2ccccc12	i
Cc1ccc(-c2nc(Cc3ccc(Cl)cc3Cl)no2)cc1C	4%
CC1CCN(CCOCCOc2ccccc2-c2ccccc2)CC1	i
(list continues)
SMILES	Mtb growth
CS(=O)(=O)N(CC(=O)Nc1cccc(F)c1)c1cccc2ccccc12	i
CC(=O)Nc1ccc(C(=O)N2CCCCC2C)cc1 (stereo not given)	i
Cc1ccc(NC(=O)c2ccc(OC(=O)COc3cccc(Br)c3)cc2)cc1	i
CC(=O)Nc1ccc(NS(=O)(=O)c2ccc(Cl)s2)cc1	i
CSc1ccc(C2c3c(oc4ccc(F)cc4c3=O)C(=O)N2Cc2ccc(C)cc2)cc1 (stereo not given)	i
CC(Oc1ccc(Cl)cc1Cl)C(=O)Nc1ccccc1I (stereo not given)	i
Clc1ccc(-c2csc3ncnc(N4CCN(C5CCCC5)CC4)c23)cc1	2%
CCCC(=O)Nc1ccccc1NC(=O)c1ccc(F)cc1	i
CCn1c(CNC(=O)c2ccc(Cl)cc2Cl)n[nH]c1=S	i
O=S(=O)(Nc1ncccn1)c1ccc(NC(=S)N2CCN(C/C=C/c3ccccc3)CC2)cc1	i
COc1ccccc1CC(=O)Nc1ccc(Cl)cc1Cl	i
COc1ccc(CCNC(=S)N2CCN(c3ncccn3)CC2)cc1OC	i
Cc1cc(Br)c(Cl)cc1NC(=O)CN1C(=O)C2C3C=CC(C3)C2C1=O (stereo not given)	i
CCOC(=O)CNC(=O)c1sc2ccccc2c1Cl	i
CC(Oc1cccc(Cl)c1)C(=O)Nc1ccc([N+](=O)[O-])cn1 (stereo not given)	1%
COc1ccc(S(=O)(=O)Nc2cccc(C)c2C)cc1Br	i
Cc1cc(=O)oc2cc(NC(=S)NC(C)c3ccc4c(c3)OCO4)ccc12 (stereo not given)	0%
CCCNS(=O)(=O)c1ccc2[nH]c(=O)[nH]c2c1	1%
Cc1ccc(S(=O)(=O)/N=C(\c2ccc(F)cc2)n2c(C)nc3ccccc32)cc1	i
COCCn1c(Cc2ccccc2)nnc1SCC(=O)Nc1cccc(C)c1C	i
CC(=O)Oc1cc(OC(C)=O)c2c3c(c(=O)oc2c1)CCCC3	i
Fc1ccc(Oc2nnc(-c3ccccc3)c3ccccc23)cc1Cl	5%
CC(C)C(=O)Nc1ccc(CN2CCCCC2)cc1	0%
O=C(O)C1CCCCC1C(=O)Nc1nnc(C2CC2)s1 (stereo not given)	i
CC(C)NC(=O)c1ccccc1NC(=O)C1CCCO1 (stereo not given)	i
CCOCC(O)CSc1ccccc1 (stereo not given)	i
COc1ccc(S(=O)(=O)NCC(=O)NC2CC2)cc1OC	i
O=C(NC(=S)Nc1cc(Cl)c(O)c(Cl)c1)c1ccc(-c2ccccc2)cc1	i
COc1cc(C(=O)O)c(-n2cnnn2)cc1OC	i
O=C(CC(NC1CCCCC1)C(=O)O)Nc1cccc([N+](=O)[O-])c1 (stereo not given)	i
COc1ccc(NC(=O)c2cc(Br)ccc2OC)c(OC)c1	1%
COC(=O)c1ccc(N2C(=O)CC(N3CCC(c4nc5ccccc5s4)CC3)C2=O)cc1 (stereo not given)	3%
COC(=O)Nc1sc(C)cc1C(=O)OC	i
NC(=O)CSCC(=O)Nc1ccc(Br)cc1	i
COc1ccc(-n2c(C)c3c(C)nnc(C)c3c2C)cc1OC	i
CCn1c(SCc2ccc(Br)cc2)nnc1-c1cccc(N)c1	i
